Bioassay records from PubChem BioAssay.
Mtb growth = Confirmatory growth inhibition assay against Mycobacterium tuberculosis H37Rv, potency (AID 1949); most inactive calls were filed without a number and no value below 0 was filed; one-dose inhibition, % at 10 µg/mL; IC50 in µg/mL for titrated hits; 100,000 compounds, 1.6% hits;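 active = confirmed in a dose series; inconclusive = about 50% or more but not retested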;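 also: bacteria grown 7 days with compound before Alamar blue readout; 0% = untreated bacteria and 100% = reference antibiotic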
* hit, by the source's call; i = inactive; ? = inconclusive.

SMILES | Mtb growth
COc1cc(/C=C/c2ccc3cccc(OC)c3n2)cc(OC)c1OC | 2%
COc1ccc(NS(=O)(=O)c2ccc(OC)c(Cl)c2Cl)c(OC)c1 | i
O=C(CN1CCCCC1)Nc1ccc(Cl)cn1 | i
O=C(C1CCN(CC2CCCCC2)CC1)N1CCCCC1 | 2%
COc1cccc(NC(=O)C(C)SCc2ccccc2)c1 (stereo not given) | i
O=C(Oc1ccccc1)c1cccc(COc2ccc([N+](=O)[O-])cc2)c1 | 3%
O=C(Oc1ccc(-c2ccccc2)nn1)c1cccc(F)c1 | i
CCOc1c(Br)cc(/C=C(/C#N)c2ccc(C#N)cc2)cc1OC | 1%
CSc1oc(-c2ccccc2)nc1S(=O)(=O)c1ccc(C)cc1 | 3%
O=C(Nc1ccc(Oc2ccc(Br)cc2)cc1)C1CCC(N2C(=O)c3ccccc3C2=O)CC1 (stereo not given) | i
CC(C)C12CN3CCN(CC(C3)C1O)C2 (stereo not given) | i
CC(Oc1ccc(Br)cc1)c1nc(-c2cccc([N+](=O)[O-])c2)no1 (stereo not given) | i
Fc1ccc(NC(=S)Nc2cccnc2)cc1Cl | ?
O=C(CCCN1C(=O)c2ccccc2C1=O)N1CCN(Cc2ccc3c(c2)OCO3)CC1 | i
Cn1c(=O)n(C)c2cc([N+](=O)[O-])c(N3CCN(C(=O)c4cccc(Cl)c4)CC3)cc21 | i
O=c1c2c(-c3cccc([N+](=O)[O-])c3)csc2ncn1Cc1cccc(Cl)c1 | i
N#Cc1cc2c(nc1SCC(=O)Nc1nnc(-c3ccccc3)s1)CCCC2 | i
CCC(C)c1ccccc1OCC(=O)Nc1ccc(C(N)=O)cc1 (stereo not given) | i
COc1cc(/C=C2/C(=N)N3N=C(c4ccco4)SC3=NC2=O)ccc1OC(=O)c1cccs1 | i
COC(=O)c1cc(OC)c(OC)cc1NC(=O)c1cccnc1 | i
CSc1ccccc1C(=O)NCC1CCCO1 (stereo not given) | i
COc1ccc(Cl)cc1C(=O)O/N=C(\N)c1ccccc1Cl | 7%
CC1CCc2ccccc2N1C(=O)c1cccs1 (stereo not given) | i
Cc1ccc(C(=O)Nc2ncc(Cc3cccc(C(F)(F)F)c3)s2)cc1 | i
O=S1(=O)N=C(N(Cc2ccccc2O)c2cccc3ccccc23)c2ccccc21 | i

Part of the list above, in markdown:
| structure | Mtb growth |
| --- | --- |
| COc1cccc(NC(=O)C(C)SCc2ccccc2)c1 (stereo not given) | i |
| O=C(Oc1ccccc1)c1cccc(COc2ccc([N+](=O)[O-])cc2)c1 | 3% |
| O=C(Oc1ccc(-c2ccccc2)nn1)c1cccc(F)c1 | i |
| CCOc1c(Br)cc(/C=C(/C#N)c2ccc(C#N)cc2)cc1OC | 1% |
| CSc1oc(-c2ccccc2)nc1S(=O)(=O)c1ccc(C)cc1 | 3% |
| O=C(Nc1ccc(Oc2ccc(Br)cc2)cc1)C1CCC(N2C(=O)c3ccccc3C2=O)CC1 (stereo not given) | i |
| CC(C)C12CN3CCN(CC(C3)C1O)C2 (stereo not given) | i |
| CC(Oc1ccc(Br)cc1)c1nc(-c2cccc([N+](=O)[O-])c2)no1 (stereo not given) | i |
| Fc1ccc(NC(=S)Nc2cccnc2)cc1Cl | ? |
| O=C(CCCN1C(=O)c2ccccc2C1=O)N1CCN(Cc2ccc3c(c2)OCO3)CC1 | i |
| Cn1c(=O)n(C)c2cc([N+](=O)[O-])c(N3CCN(C(=O)c4cccc(Cl)c4)CC3)cc21 | i |
| O=c1c2c(-c3cccc([N+](=O)[O-])c3)csc2ncn1Cc1cccc(Cl)c1 | i |
| N#Cc1cc2c(nc1SCC(=O)Nc1nnc(-c3ccccc3)s1)CCCC2 | i |
| CCC(C)c1ccccc1OCC(=O)Nc1ccc(C(N)=O)cc1 (stereo not given) | i |
| COc1cc(/C=C2/C(=N)N3N=C(c4ccco4)SC3=NC2=O)ccc1OC(=O)c1cccs1 | i |
| COC(=O)c1cc(OC)c(OC)cc1NC(=O)c1cccnc1 | i |
| CSc1ccccc1C(=O)NCC1CCCO1 (stereo not given) | i |
| COc1ccc(Cl)cc1C(=O)O/N=C(\N)c1ccccc1Cl | 7% |

Later entries.
SMILES | Mtb growth
O=C(CSCc1ccccc1Cl)Nc1cc(C(F)(F)F)ccc1Cl | i
O=C1C2C3c4ccccc4C(C(=O)O)(c4ccccc43)C2C(=O)N1c1cccc(Cl)c1 (stereo not given) | i
N#Cc1ccc(CSc2nnc(N)s2)cc1 | 4%
CCn1c(CNC(=O)c2ccc(Br)cc2)nnc1SCC(=O)Nc1cc(Cl)ccc1OC | i
c1ccc(COC(c2ccccc2)c2nc3ccccc3n2Cc2ccccc2)cc1 (stereo not given) | 6%
Cc1ccc2c(=O)c(CN3CCN(Cc4ccccc4)CC3)c(C)[nH]c2c1C | i
CC(C)c1ccc(OCC(=O)N2CCN(c3ccccn3)CC2)c(Br)c1 | 33%
CCCCNC(=O)/C(=C\c1cccs1)NC(=O)c1ccc(C)cc1 | i
CCC(=O)Nc1ccc2nc(SC(CC)C(=O)Nc3ccc(C(C)=O)cc3)sc2c1 (stereo not given) | 3%
Cc1ccc(S(=O)(=O)Nc2cccc(C(=O)O)c2)c(C)c1C | i
Cc1ccc(OCCCCOc2ccc(C)cc2)cc1 | 6%
COc1ccc(C)cc1NC(=S)N1CCC2(CC1)OCCO2 | i
Cc1cc(=O)n2[nH]c(NCc3c(F)cccc3Cl)nc2n1 | 25%
CCn1c(COc2c(C)cccc2C)nnc1SCC(=O)Nc1cc(C(F)(F)F)ccc1Cl | i
O=C(NCCN1Cc2ccccc2C1=O)Nc1cccc(Cl)c1 | i
O=C(CCN1C(=O)c2ccccc2S1(=O)=O)Nc1nccs1 | i
O=c1nc(NC2CCCC2)ccn1Cc1cccc(Br)c1 | 3%
Cc1ccc(-c2ccc(CCC(=O)O)n2-c2ccc(C(=O)O)cc2)cc1 | i
Cn1c(=O)c2c([nH]c(=O)n2Cc2ccccc2F)n(C)c1=O | i
CS(=O)(=O)N(CC(=O)Nc1ccc2c(c1)OCCO2)c1cc(Cl)cc(Cl)c1 | i
Cc1cc(C)nc(Nc2cccc(C(F)(F)F)c2)n1 | i
COc1cc(S(=O)(=O)N2CCN(C34CC5CC(CC(C5)C3)C4)CC2)ccc1F | i
CCOc1cc(C(=O)NC(=S)Nc2ccc(C(=O)O)c(Cl)c2)cc(OCC)c1OCC | i
COC(=O)c1sc2nc(-c3ccccc3)nc(N3CCCC3)c2c1C | i
CCC(C)(C)c1ccc(OCCCCN2CCCC2)cc1 | 16%

Continuation:
SMILES | Mtb growth
O=C(c1ccc(Cl)c(Cl)c1)N1CCCC1 | i
CCc1sc(C(=O)Nc2ccc(C(=O)N3CCCCC3)cc2)cc1Br | i
COCCNC(=O)CN1C(=O)COc2ccccc21 | ?
O=C(Cn1nc(-c2ccccc2)c2ccccc2c1=O)Nc1ccc(C(=O)N2CCCCC2)cc1 | i
CCCC(=O)Nc1ccc(NC(=O)c2sc3ccccc3c2Cl)cc1 | i
Cc1cc(C)cc(C(=O)Nc2ccc(Cl)cc2Cl)c1 | i
O=C(Nc1ccc2c(c1)oc1ccccc12)c1c(F)c(F)c(F)c(F)c1F | i
CCC(C)NC(=O)C(=O)Nc1ccc(OCC(C)C)cc1 (stereo not given) | i
COc1cc(C(=S)N2CCC(C)CC2)cc(OC)c1OC | i
COc1ccccc1C(=O)Nc1cccc2cccnc12 | ?
COc1cc(S(=O)(=O)N2CCCCC2)ccc1NC(=O)c1ccc(F)cc1 | i
CSc1ccc(C2c3c(oc4ccc(Cl)cc4c3=O)C(=O)N2Cc2ccc(C)cc2)cc1 (stereo not given) | i
CC(C)NCC(O)COc1cccc2ccccc12 (stereo not given) | i
COc1ccc(C(NC(=O)COc2ccc(Cl)cc2Br)c2ccccc2)cc1 (stereo not given) | 9%
Cc1ccc(SCCC(=O)NCCSCc2c(F)cccc2Cl)cc1 | i
COc1ccccc1C(=O)NC(=S)NNC(=O)C1CCCCC1 | 28%
COC(=O)Cc1ccc(NC(=S)N2CCN(CCO)CC2)cc1 | i
N#Cc1nc(COc2cccc(Cl)c2)oc1NCc1ccc2c(c1)OCO2 | i
CC(C)COC(=O)Nc1ccccc1C(=O)N1CCOCC1 | i
COc1cc(Cl)c(C)cc1NC(=O)c1cc(C)cc(C)c1 | 19%
COc1cc(NC(=O)CC(C)C)c(C(=O)O)cc1OC | 6%
CS(=O)(=O)N(CC(=O)NC1CC1)c1ccc(Cl)c(C(F)(F)F)c1 | i
O=C(CCSCCC(=O)Nc1nc2ccccc2[nH]1)Nc1nc2ccccc2[nH]1 | 41%
CCOc1cc(CN2CCN(C(=O)c3cccc(OC)c3)CC2)ccc1OC | i
CCOC(=O)NC1(C(F)(F)F)C(=O)NC(C)=C1C(=O)OC (stereo not given) | i

The list goes on:
SMILES | Mtb growth
Cc1ccc(S(=O)(=O)Nc2cc(Cl)c(O)c3ncccc23)cc1 | i
COc1ccccc1OCC(=O)Nc1ccc(S(=O)(=O)NC(C)=O)cc1 | i
Cc1ccc(-n2c(SCC(=O)Nc3ccccc3F)nnc2-c2ccccc2)cc1C | i
C=CCn1c(-c2ccc(OCC(C)C)cc2)n[nH]c1=S | i
CCOC(=O)C1CCN(C(=O)CN(Cc2ccc(Cl)cc2)S(C)(=O)=O)CC1 | i
COc1ccc(NC(=S)Nc2ccc(F)cc2F)c(C)c1 | i
Cc1sc(NC(=O)c2ccc(Br)s2)c(C(N)=O)c1C | i
CC(SCc1ccccc1)C(=O)Nc1cc(C(F)(F)F)ccc1Cl (stereo not given) | i
Brc1c(OCCCCN2CCCCC2)ccc2ccccc12 | 45%
O=C(c1ccc(NC(=S)NCc2ccco2)cc1)N1CCOCC1 | i
CC1CCc2c(sc(NC(=O)C3c4ccccc4Oc4ccccc43)c2C(N)=O)C1 (stereo not given) | i
COc1ccc(C(=O)Nc2cccc(C)c2)cc1I | i
Cc1ccc(NC(=O)CSc2nnc(-c3ccncc3)n2-c2ccc(Cl)cc2)cc1F | i
CCOc1ccc(OCCCCOc2cccc3cccnc23)cc1 | 8%
COc1cc(OC)c(C(=O)Nc2cccc3c2CCCC3)cc1OC | i
Cc1ccc(C(=O)NC(=S)Nc2cccc(C)c2C)cc1I | i
CCOC(=O)c1c(NC(=O)COc2ccccc2C)sc(C(=O)N2CCCCC2)c1C | i
CN(c1ccccc1C(=O)Nc1ccc(F)cc1F)S(C)(=O)=O | i
Cc1ccc(C(=O)Nc2cc(C)c(I)cc2C)cc1C | i
CCOc1ccccc1C(=O)N1CCN(c2ccc(F)cc2)CC1 | i
COC(=O)Nc1ccn(Cc2ccc(Cl)cc2)n1 | i
CCOC(=O)Cc1ccc(NC(=O)c2ccccc2F)cc1 | 3%
O=C(CC1NCCNC1=O)Nc1cccc(Cl)c1 (stereo not given) | i
O=S(=O)(c1ccc(F)cc1)N(CCO)CC(O)Cn1c2ccccc2c2ccccc21 (stereo not given) | 6%
COCCNC(=O)c1c(NC(=O)c2ccccc2C)sc2c1CCCC2 | 1%

Additional entries:
SMILES | Mtb growth
O=C(Nc1ccc(Cl)c(Br)c1)c1ccc(Cl)cc1Cl | 4.2µg/mL*
CC(NC(=O)COc1ccc(Br)cc1Cl)C1CCCO1 (stereo not given) | 0%
Cc1ccc(-c2nnc3n2N=C(c2ccc(Br)cc2)CS3)cc1 | i
Cn1c(SCC(=O)Nc2ccc(Cl)cc2Cl)nnc1-c1ccc([N+](=O)[O-])cc1 | i
CCCCC(=O)Nc1ccc2oc(-c3cccc(F)c3)nc2c1 | 1%
Cc1cc(C(F)(F)F)n2ncc(-c3ccccc3)c2n1 | 1%
COc1ccc(Cl)cc1S(=O)(=O)Oc1c(C)cccc1C | i
CC(C(=O)N1CCN(CCO)CC1)(c1ccccc1)c1ccccc1 | i
Cc1cc(=O)oc2cc(OC(C)C(=O)Nc3ccc(N4CCOCC4)cc3)ccc12 (stereo not given) | i
O=C(NCc1ccc2c(c1)OCO2)Nc1ccc(Cl)cc1Cl | i
CCOC(=O)C1=C(c2ccccc2)Nc2ncnn2C1c1ccc2c(c1)OCO2 (stereo not given) | i
CCN(CC(=O)NC1CCCCCC1)S(=O)(=O)c1ccc(F)cc1 | i
CCOC(=O)N1CCN(C(=O)Nc2ccc3c(c2)nnn3C)CC1 | i
CC1=C(C(=O)Nc2ccccc2F)C(c2cccs2)NC(=S)N1 (stereo not given) | 0%
COC(=O)c1ccc(NC(=O)c2sc3ccccc3c2Cl)cc1 | i
COc1ccc(-c2cc(C(=O)N3CCN(c4cccc(Cl)c4)CC3)c3ccccc3n2)cc1OC | i
CCc1ccccc1NC(=O)C(=O)NCCCN1CCOCC1 | i
COc1ccc(Cl)cc1CN1CCN(c2ncnc3scc(-c4ccccc4)c23)CC1 | 4.2µg/mL*
CCOc1cc(CNCC2CCCO2)cc(Cl)c1OCc1ccccc1 (stereo not given) | 22%
CCOC(=O)C1=C(Nc2ccccc2)OCC1=O | i
CCOC(=O)C1=C(C)NC(SCc2cc(=O)[nH][nH]2)=C(C#N)C1c1cccs1 (stereo not given) | i
CC(=O)c1ccc(COC(=O)c2cccc(Cl)c2)cc1 | i
COC(=O)c1ccccc1NC(=S)Nc1ccc(OC)c(OC)c1 | i
Cc1ccc(-n2nc3ccc(NC(=O)c4cc5ccccc5o4)cc3n2)cc1 | 5%
COC(=O)C1=CN(Cc2ccc(OC)cc2)C=C(C(=O)OC)C1c1ccccc1OC(C)C | i

(list continues)
SMILES | Mtb growth
O=C(Nc1ccccc1Sc1ccccc1)c1cccs1 | 0%
COc1cccc(NC(=O)c2ccc(-c3ccc([N+](=O)[O-])cc3)o2)c1 | 36%
COc1ccc2c(Cl)c(C(=O)Nc3ccc(Cl)cc3C(F)(F)F)sc2c1 | i
CC(NS(=O)(=O)c1ccccc1)C(=O)NC1CCCC1 (stereo not given) | i
CCOc1cccc(NC(=O)c2cccc(F)c2)c1 | i
CCOc1ccc(OCC)c(S(=O)(=O)Nc2ccccn2)c1 | i
COc1ccc(S(=O)(=O)N2CCc3cc(OC)c(OC)cc3C2c2ccccc2)cc1 (stereo not given) | i
CCc1nnc(NS(=O)(=O)c2ccc(NCc3cc(Cl)cc(Cl)c3O)cc2)s1 | 0%
COc1cc(NS(=O)(=O)c2ccc(NC(=O)C34CC5CC(CC(C5)C3)C4)cc2)ncn1 | i
COc1cccc(Oc2coc3cc(OC(=O)N4CCOCC4)ccc3c2=O)c1 | i
COc1ccc(S(=O)(=O)Nc2cccc(C)c2)cc1Br | i
Cc1cccc(CN2CCN(Cc3ccccn3)CC2)c1 | i

These rows are one share of the data; rates above refer to the full screens.
